CSC inhib – cancer stem cell inhibition. cancer stem cell-like cells viability, luminescence. inhibition, % at 7.5 µM. 1.1% of 300,000 active;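 active means mean at 75% or more and at least half the replicates too; inconclusive means mean and replicates disagree; tested in HMLE shEcad cells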;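 further: 0% = median of negative and 100% = median of positive control wells; the first replicate is given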
Env fusion inh – inhibitors of HIV Env-mediated cell fusion. 1.1% of 360,000 active. HeLa-JRFL Env/CEM21 cell fusion, luciferase. AID 651610. inhibition, % at 12.3 µM;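 active means mean replicate inhibition score of at least 50 and every replicate individually at or above 50; inconclusive means only one of the two criteria met; inactive means mean below 50 and not all replicates reaching 50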;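 further: 0% = plate neutral controls and 100% = maraviroc near 300 nM; one replicate is shown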
MT1-MMP act inh – MT1-MMP (human) activation inhibition. P50281. 0.061% of 360,000 active. AID 651647. HT1080 RFP-PRO-GFP cells, GFP/RFP ratio fluorescence, overnight; percent of plate control window, DMSO zero. GFP/RFP ratio change, % at 20 µM;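 active means GFP/RFP ratio change of at least 30% with cell ATP level not reduced by more than half and red fluorescence within 50% of control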; further: strong numbers were not always called active
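Test system: HT1080 cells expressing an RFP-PRO-GFP fluorescent reporter construct / Compound dosing: single-point 20 µM compound, 1% DMSO / Schedule: cells overnight before dosing, compound overnight, 37 °C, 5% CO2 / Evaluation: GFP/RFP fluorescence ratio / Control set: DMSO and RFP-L50D-GFP cell wells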
eIF4H inh – inhibitors of RNA binding by human eIF4H; Q15056; eIF4H fluorescence polarization binding assay; inhibition, % at 35 µM; 0.94% of 290,000 active; AID 2012;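 active means 50% or more with normal probe brightness, or confirmed in later tests; inconclusive means above 50% with abnormal brightness, or retests that disagree; inactive means below 50% or failed in later tests; about a fifth of its hits are not listed in these tables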;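 further: calls also rest on retests at 20 µM and on dose response follow-up; 0% = protein and probe with vehicle and 100% = probe without protein; strong numbers were not always called active; many hits fall short of the cut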
UUG fidelity – yeast start codon fidelity modulation | S. cerevisiae UUG-firefly luciferase reporter, luminescence/redox ratio | activity score, % at 18.7 µM | 0.13% of 350,000 active | AID 602363;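 active means replicate mean at a twofold rise or more, about +100% in these data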;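 further: firefly luciferase made from a UUG start codon reports start codon fidelity; reporter light over untreated wells divided by growth signal over untreated wells; some hits fall short of that in this replicate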
PABP polyA inh – PABP-poly(A) binding inhibition. inhibition, % at 35 µM. 1% of 290,000 active. PABP-poly(A) RNA binding, fluorescence polarization;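 active means 50% or more with normal probe brightness, or confirmed in later tests; inconclusive means above 50% with abnormal brightness, or retests that disagree; inactive means below 50% or failed in later tests; about a fifth of its hits are not listed in these tables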;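 further: calls also rest on retests at 20 µM and on dose response follow-up; controls were probe without protein and protein plus probe with vehicle; some compounds called inactive have numbers as strong as hits; many hits fall short of the cut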
Target sequence (P11940 whole entry, looked up): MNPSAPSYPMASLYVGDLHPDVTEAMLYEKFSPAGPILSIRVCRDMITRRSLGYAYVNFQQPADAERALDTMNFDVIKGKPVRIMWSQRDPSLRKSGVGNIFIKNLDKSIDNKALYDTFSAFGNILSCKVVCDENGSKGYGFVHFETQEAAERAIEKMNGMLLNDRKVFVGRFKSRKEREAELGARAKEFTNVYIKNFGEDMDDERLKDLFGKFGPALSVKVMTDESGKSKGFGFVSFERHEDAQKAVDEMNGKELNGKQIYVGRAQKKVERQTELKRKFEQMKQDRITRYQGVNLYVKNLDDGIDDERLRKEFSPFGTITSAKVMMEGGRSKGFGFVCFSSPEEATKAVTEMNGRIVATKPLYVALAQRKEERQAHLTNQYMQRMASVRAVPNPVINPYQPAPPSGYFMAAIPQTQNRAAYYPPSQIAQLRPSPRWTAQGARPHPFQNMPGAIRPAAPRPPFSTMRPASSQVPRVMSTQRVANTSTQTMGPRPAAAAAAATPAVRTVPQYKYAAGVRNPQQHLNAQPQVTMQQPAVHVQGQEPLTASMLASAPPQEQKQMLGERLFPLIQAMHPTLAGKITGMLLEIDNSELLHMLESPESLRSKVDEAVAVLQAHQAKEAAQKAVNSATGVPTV
Rce1 inh – yeast Ras-converting enzyme inhibition. yeast membranes, quenched prenylated peptide cleavage fluorescence. calls only. 0.27% of 290,000 active. AID 2563;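 active means fall in fluorescence gain of 50% or more versus controls, with final raw signal at or below 3038400; inconclusive means same 50% fall but final raw signal above 3038400; inactive means fall in fluorescence gain under 50%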;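 further: plate controls were neutral control wells for no effect and wells lacking membranes for full effect; tested at 10 µM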
eIF4H inh retest – further read-out of eIF4H inh, marked with its call; inhibition, %; compound at 20 µM; confirmation average;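 mean of two retest wells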
PABP polyA inh retest – also measured in PABP polyA inh; calls as there; inhibition, %; compound at 20 µM; confirmation repeats;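 mean of two retest wells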
MT1-MMP act inh RFP – recorded beside MT1-MMP act inh, whose call it bears; RFP signal change, %; measured here: RFP expression control read;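 0 = vehicle wells; hits needed this value within 50% of zero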
Numbers without * were called inactive; i = inactive; ? = inconclusive; . = no result given; & = joins results of further samples; ! = repeats disagree. Some of the compounds tested; the hit share may differ from the screen's.

SMILES | CSC inhib | Env fusion inh | MT1-MMP act inh | MT1-MMP act inh RFP | eIF4H inh | UUG fidelity | PABP polyA inh | Rce1 inh | others
O=C(c1ccc2c(c1)OCO2)N1CCN(S(=O)(=O)c2ccccc2)CC1 | -5 | -3 | -3 | 0 | -7 | 5 | 2 | i
CCOC(=O)c1[nH]c(=S)[nH]c1C | . | -21 | 0 | 4 | . | -15 | . | .
COc1cccc(N2C(=NC(=O)CCc3ccccc3)SC3CS(=O)(=O)CC32)c1 (stereo not given) | -6 | 3 | 2 | 3 | -5 | -9 | 0 | i
Cc1ccccc1Cn1c(=O)n(Cc2ccco2)c(=O)c2ccccc21 | . | . | 6 | 1 | -5 | -11 | 0 | i
CC(=O)N1Cc2ccccc2CC1C(=O)OCC(=O)c1c(N)n(C)c(=O)n(C)c1=O (stereo not given) | . | -4 | 1 | 4 | . | 0 | . | .
COCCNC(=O)CN(C(=O)CCC(=O)Nc1ccccn1)c1ccc(F)c(Cl)c1 | -13 | . | 1 | 2 | 1 | -7 | 5 | i
Cc1nc2sc(C(=O)OCC(=O)N3c4ccccc4CC3C)c(C)c2c(=O)[nH]1 (stereo not given) | -3 | 11 | 9 | -2 | -1 | . | -5 | i
COc1ccc(C(=O)NCCCn2ccnc2)cc1[N+](=O)[O-] | 1 | -5 | 0 | 3 | 1 | . | 2 | i
Cc1[nH]c(C)c(S(=O)(=O)N2CCCCC2C)c1C(=O)N1CCCC1 (stereo not given) | 2 | -4 | 0 | 1 | -14 | -11 | 6 | i
CC(=O)Nc1ccc(NC(=O)CCCSc2nc3ccccc3s2)cc1 | 12 | -4 | 0 | 5 | 0 | . | 62 | i | eIF4H inh retest=-19;PABP polyA inh retest=13
Cc1ccc(CN(c2ccc(C(=O)Nc3ccc4c(c3)OCO4)cc2)S(C)(=O)=O)cc1 | 5 | 28 | -10 | -2 | -10 | -16 | -2 | i
CC12CC(c3ccccc3O1)C(C(=O)N1CCOCC1)C(=O)N2 (stereo not given) | 5 | . | -4 | 1 | -2 | -11 | 2 | i
C#Cc1ccc(NC(=O)C2(C)CCN2C(=O)Cc2ccc(-c3ccccc3)cc2)cc1 (stereo not given) | . | ? | 2 | -24 | . | -9 | . | .
Cc1cc(C)c(C)c(S(=O)(=O)N[C@@H](C)C(=O)OCC(N)=O)c1C | -15 | 13 | 0 | 4 | 1 | . | 1 | i
O=P(O)(CN1CCCCCC1)CN1CCCCCC1 | . | . | . | . | 20 | . | 16 | i
CC(C)C[C@H](NC(=O)c1nc[nH]c1C(=O)N1CCNCC1)C(=O)OC(C)(C)C | 12 | -15 | -2 | 2 | . | -23 | . | i
CCOCCCn1c(=S)[nH]c2cc(C(=O)NCCc3ccc(OC)c(OC)c3)ccc2c1=O | -10 | 4 | -1 | 0 | 14 | -13 | 1 | i
O=C(/C=C/c1ccc(S(=O)(=O)N2CCOCC2)cc1)NCc1ccccc1F | 34 | . | 1 | 1 | . | -9 | . | .
COc1ccc(CN(C)C[C@H]2OCCCC[C@@H](C)Oc3ccc(NC(=O)c4ccccc4)cc3C(=O)N([C@H](C)CO)C[C@@H]2C)cc1 | . | -37 | -2 | 3 | . | 13&2 | . | .
O=C1c2ccccc2C(=O)N1C/C=C/CN1C(=O)c2ccccc2C1=O | . | . | . | . | -2 | . | -8 | i

Six entries already listed, arranged by SMILES length, highest first.
SMILES | CSC inhib | Env fusion inh | MT1-MMP act inh | MT1-MMP act inh RFP | eIF4H inh | UUG fidelity | PABP polyA inh | Rce1 inh | others
COc1ccc(CN(C)C[C@H]2OCCCC[C@@H](C)Oc3ccc(NC(=O)c4ccccc4)cc3C(=O)N([C@H](C)CO)C[C@@H]2C)cc1 | . | -37 | -2 | 3 | . | 13&2 | . | .
CCOCCCn1c(=S)[nH]c2cc(C(=O)NCCc3ccc(OC)c(OC)c3)ccc2c1=O | -10 | 4 | -1 | 0 | 14 | -13 | 1 | i
O=C(/C=C/c1ccc(S(=O)(=O)N2CCOCC2)cc1)NCc1ccccc1F | 34 | . | 1 | 1 | . | -9 | . | .
Cc1ccccc1Cn1c(=O)n(Cc2ccco2)c(=O)c2ccccc21 | . | . | 6 | 1 | -5 | -11 | 0 | i
CC(=O)Nc1ccc(NC(=O)CCCSc2nc3ccccc3s2)cc1 | 12 | -4 | 0 | 5 | 0 | . | 62 | i | eIF4H inh retest=-19;PABP polyA inh retest=13
O=P(O)(CN1CCCCCC1)CN1CCCCCC1 | . | . | . | . | 20 | . | 16 | i

Further records follow:
SMILES | CSC inhib | Env fusion inh | MT1-MMP act inh | MT1-MMP act inh RFP | eIF4H inh | UUG fidelity | PABP polyA inh | Rce1 inh | others
COc1ccc(Cc2nc(-c3ccccn3)no2)cc1OC | -16 | 13 | 1 | -2 | 3 | . | -5 | .
C[C@@H]1CN([C@@H](C)CO)C(=O)c2cc(Br)cnc2O[C@@H]1CN(C)C(=O)C1CCCCC1 | . | -21 | 5 | 5 | . | 137*! | . | .
COc1ccc(CCNC(=O)CCC(=O)N2CCN(S(=O)(=O)c3ccc(Cl)cc3)CC2)cc1OC | -1 | -24 | -6 | 8 | -3 | 3 | 0 | i
Cc1ccc(NC(=O)CN2C(=O)N/C(=C\c3ccco3)C2=O)cc1 | -5 | -83 | -1 | 9 | . | -22 | . | .
O=C(NC1CCCC1)c1cc(COc2ccc3ncccc3c2)on1 | 5 | . | -1 | -29 | -2 | . | 6 | i
COc1cc2[nH]c(=O)n(CCCCCC(=O)N3CCN(c4ccccc4)CC3)c(=O)c2cc1OC | 11 | 51 | 12 | -3 | 2 | 44 | 2 | i
CC/C(O)=N\S(=O)(=O)c1ccc(N=NN(C)C)cc1 | -13 | . | 0 | 4 | -10 | -2 | -2 | i
O=C1N=c2ccc(Br)cc2=C1c1sc(=S)n(NS(=O)(=O)c2ccccc2)c1O | 17 | 12 | 4 | 2 | 8 | . | 2 | i
Cc1cc2n(n1)C(c1ccc(O)cc1)Nc1ccccc1-2 (stereo not given) | 23 | -24 | . | . | -1 | -4 | -1 | i
c1ccc(-c2cc(NCCN3CCCCC3)c3ccccc3n2)cc1 | . | -36 | 5 | 3 | 0 | -20 | 13 | i
O=C(O)c1cc2nccc(-c3ccc(F)cc3)n2n1 | -8 | -11 | -1 | -1 | 3 | -10 | -9 | i
Cc1nc(Cl)c(C(=O)NC(=O)Nc2cccc(C(F)(F)F)c2)c(C)c1[N+](=O)[O-] | . | -22 | -12 | -16 | 10 | -19 | 0 | i
O=C1N/C(=C/c2ccc(Br)s2)C(=O)N1c1ccccc1 | -1 | -12 | 3 | 5 | -3 | -15 | 3 | .
C=CCN1C(=S)CC(c2ccccc2)=Nc2ccccc21 | . | 92* | 1 | 1 | 4 | -9 | -5 | i
CCOC(=O)C1CCCN(C(=O)c2cccs2)CC1 (stereo not given) | . | -1 | 4 | 2 | . | -10 | . | .
CCC(C)(C)NC(=O)CN(Cc1ccco1)C(=O)CCC(=O)Nc1nccs1 | 0 | -14 | 2 | -1 | -4 | -15 | -3 | .
CC(=O)N1N=C(c2ccc(Cl)cc2)CC1c1ccc([N+](=O)[O-])cc1 (stereo not given) | -15 | -5 | 13 | -5 | 0 | 6 | 2 | i
CCOC(=O)c1cnc2c(-c3ccc(Cl)cc3)cnn2c1C | 3 | -6 | 2 | 3 | -11 | . | -11 | .
COc1ccc(NC(=O)C2=C(C)C(=O)OC23CCC(C)CC3)c(OC)c1 (stereo not given) | -5 | 0 | -8 | 0 | 8 | -4 | -8 | i
CN(CCOc1ccc(Cl)cc1)C(=O)c1ccccc1SCC(=O)N1CCCC1 | -9 | 35 | 0 | -21 | . | -2 | . | .

Quoted at random: four records from the list
SMILES | CSC inhib | Env fusion inh | MT1-MMP act inh | MT1-MMP act inh RFP | eIF4H inh | UUG fidelity | PABP polyA inh | Rce1 inh | others
COc1ccc(NC(=O)C2=C(C)C(=O)OC23CCC(C)CC3)c(OC)c1 (stereo not given) | -5 | 0 | -8 | 0 | 8 | -4 | -8 | i
Cc1nc(Cl)c(C(=O)NC(=O)Nc2cccc(C(F)(F)F)c2)c(C)c1[N+](=O)[O-] | . | -22 | -12 | -16 | 10 | -19 | 0 | i
O=C(O)c1cc2nccc(-c3ccc(F)cc3)n2n1 | -8 | -11 | -1 | -1 | 3 | -10 | -9 | i
CCC(C)(C)NC(=O)CN(Cc1ccco1)C(=O)CCC(=O)Nc1nccs1 | 0 | -14 | 2 | -1 | -4 | -15 | -3 | .

Further results
SMILES | CSC inhib | Env fusion inh | MT1-MMP act inh | MT1-MMP act inh RFP | eIF4H inh | UUG fidelity | PABP polyA inh | Rce1 inh | others
COc1ccc(-c2coc3cc(OC4OC(CO)C(O)C(O)C4O)cc(O)c3c2=O)cc1 (stereo not given) | -3 | . | 3 | 1 | . | -5 | . | .
COc1ccc(NC(=O)Cn2c(CCC(=O)O)ccc2-c2ccc(C)cc2)cc1 | -11 | -7 | 0 | 3 | -12 | -16 | 10 | i
Cc1ccc(Nc2nc(-c3c(C)n(C)n(-c4ccccc4)c3=O)c(C)s2)cc1 | -15 | -10 | -2 | -2 | 0 | -6 | 2 | i
CCOC(=O)/C(C#N)=C1/CCCCCN1C | -7 | . | 3 | 7 | -4 | -4 | 1 | i
CCOC(=O)C1=C(COc2ccccc2)NC(=O)NC1c1cccc([N+](=O)[O-])c1 (stereo not given) | 1 | 10 | 0 | 0 | 0 | 5 | 7 | i
O=C(CSc1ccccc1)Nc1cc(S(=O)(=O)N2CCOCC2)ccc1N1CCOCC1 | -8 | 10 | 0 | -2 | 8 | . | 4 | i
Cc1c(Cl)cccc1NC(=S)N/N=C/c1ccccc1Cl | -12 | . | . | . | 4 | . | 6 | i
CCOC(=O)Oc1ccc2oc(C)c(C(=O)OCCOC)c2c1 | . | -189 | 1 | 3 | -6 | 10 | -4 | i
CC(NC(=O)C1c2ccccc2Oc2ccccc21)C1CCCO1 (stereo not given) | 5 | -7 | 5 | 3 | -2 | -11 | -4 | i
CCOc1ccccc1NC(=O)C(Sc1nnnn1C)c1ccccc1 (stereo not given) | -4 | 1 | -4 | -3 | 8 | . | -5 | i
CN1CCN(C(=O)c2cc(Oc3c(F)c(F)c(F)c(F)c3F)cc(C(=O)N3CCN(C)CC3)c2)CC1 | 12 | -8 | -1 | 3 | 10 | -15 | 6 | i

As a working copy, part of the list above.
SMILES | CSC inhib | Env fusion inh | MT1-MMP act inh | MT1-MMP act inh RFP | eIF4H inh | UUG fidelity | PABP polyA inh | Rce1 inh | others
O=C(c1ccc2c(c1)OCO2)N1CCN(S(=O)(=O)c2ccccc2)CC1 | -5 | -3 | -3 | 0 | -7 | 5 | 2 | i
CCOC(=O)c1[nH]c(=S)[nH]c1C | . | -21 | 0 | 4 | . | -15 | . | .

Bioassay records: PubChem, several laboratories
